Compound activity (PubChem)
TRPML1 ag: agonists of human TRPML1 channel. Q9GZU1. TRPML1-expressing cells, Ca2+ dye fluorescence, FDSS; host cell line not named in the record; reference of the full effect not given here. activation, % (test concentration not listed). 0.12% of 410,000 active; in the data active = activation above about 50%; inconclusive = about 30% to 50%; inactive = below about 30%; further: 0% is about no effect; the text of the record puts the active cut at 80%
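Calcium fluorescence on an FDSS kinetic reader gave the read-out. Tet-induced TRPML1-DL cells were plated overnight, dye-loaded (Ca8 with quencher, 45-90 min, room temperature, dark), then read 110 s after compound addition, and again 110 s after 4uM final 54-4 (EC80).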
Six1-Eya2 inh: Six1/Eya2 interaction inhibition | AlphaScreen GST-Six1/His-Eya2 binding, biochemical; stronger effect = lower value; control for the full effect not named in the record | activity change, % (test concentration not listed) | 0.56% of 360,000 active; in the data active = activity change below about -65%; inconclusive = about -30% to -65%; inactive = above about -30%; further: on the % scale 0 is the no-effect control and ±100 the full control effect; compound concentration not given in the record
Target sequence (O00167 whole entry, looked up): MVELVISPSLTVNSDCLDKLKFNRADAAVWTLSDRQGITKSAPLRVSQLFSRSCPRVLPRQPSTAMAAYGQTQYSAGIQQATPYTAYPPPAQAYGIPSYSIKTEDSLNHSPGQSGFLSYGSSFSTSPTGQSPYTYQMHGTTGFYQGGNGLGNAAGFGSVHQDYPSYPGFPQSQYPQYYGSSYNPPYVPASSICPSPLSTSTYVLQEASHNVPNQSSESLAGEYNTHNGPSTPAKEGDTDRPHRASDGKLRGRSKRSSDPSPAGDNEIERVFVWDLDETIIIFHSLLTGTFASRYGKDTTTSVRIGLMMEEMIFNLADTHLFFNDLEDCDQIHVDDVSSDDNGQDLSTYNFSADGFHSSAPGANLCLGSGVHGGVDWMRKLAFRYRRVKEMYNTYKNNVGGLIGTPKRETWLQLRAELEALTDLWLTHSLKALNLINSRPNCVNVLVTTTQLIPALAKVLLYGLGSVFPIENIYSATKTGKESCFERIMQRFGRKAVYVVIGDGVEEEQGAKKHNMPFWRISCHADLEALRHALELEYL
Target sequence (Q15475 whole entry, looked up): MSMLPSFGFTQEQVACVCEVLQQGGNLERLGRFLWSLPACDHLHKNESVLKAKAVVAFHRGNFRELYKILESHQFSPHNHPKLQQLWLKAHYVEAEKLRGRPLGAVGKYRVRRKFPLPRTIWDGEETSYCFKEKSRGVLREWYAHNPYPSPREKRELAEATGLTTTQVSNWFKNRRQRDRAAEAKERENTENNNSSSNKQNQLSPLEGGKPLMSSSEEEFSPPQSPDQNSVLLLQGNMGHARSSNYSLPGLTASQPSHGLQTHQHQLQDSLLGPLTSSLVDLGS
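AlphaScreen luminescence read after one hour at 37 °C in darkness. Pin-transferred compounds met GST-Six1 and His-Eya2 protein (5X stock 250 nM/500 nM) plus glutathione donor and Ni-chelate acceptor beads (5X, 50 ug/mL).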
PINK1 expr mod: modulators of PINK1 expression; PINK1 immunofluorescence, high-content cytometry, 24 h; Potency, µM (top dose mostly 76.6 µM), without a hit: at the top dose activation (PINK1 increase), hits mostly activators; 0.2% of 410,000 active; AID 624263; active = well fitted activation curve with a large enough effect; inconclusive = small, poorly fitted or top-dose-only effect; inactive = flat fitted curve, though single readings scatter; cell line not stated here;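 further: potency means the concentration at half of the fitted maximal effect; % of control where 0% means no effect; nearly all actives have a fitted effect of over 65% in size; a mitochondrial uncoupler was the plate control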
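Fluorescence from anti-PINK1 antibody, together with nuclear and cell stains, was scanned on a laser-scanning cytometer. Before staining, stable-line cells were incubated 24 hours with compounds at 5 concentrations; primary antibody 12 h at 10 degrees C.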
CtBP-E1A blk: inhibitors of CtBP/E1A interaction; AlphaScreen GST-E1A/His-CtBP binding, 1536-well; stronger effect = lower value; control for the full effect not named in the record; activity change, % (concentration not given with the values); 0.49% of 340,000 active; AID 651724; in the data active means activity change below about -65%; inconclusive means about -30% to -65%; inactive means above about -30%; further: on the % scale 0 is the no-effect control and ±100 the full control effect
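Protein mix (5X: 125 nM each GST-E1A, His-CtBP) was incubated with pinned compound 2 h at 37 deg C in dark, in 50 mM Tris pH 8.0 buffer with 300 mM NaCl. Glutathione donor and nickel acceptor beads followed; AlphaScreen signal read after 1 h.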
D2 ag: activates the human D2 dopamine receptor. P14416. activation, % (no concentration beside the values). AID 624465. DiscoveRx PathHunter D2 beta-arrestin, luminescence, 90 min; 100% = 57 uM dopamine signal. 0.084% of 360,000 active; in the data active = activation above about 40%; inconclusive = about 15% to 40%; inactive = below about 15%; further: compound concentration not given in the record; the text of the record calls up to 30% inactive
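Agonist mode: compounds alone added to overnight-plated D2 PathHunter cells for 90 min at 37 C, with 57 uM final dopamine (EC100) defining full response. Beta-arrestin recruitment detected by chemiluminescent reagent, read after 1 h at ambient temperature.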
TRPML1 inh: human mucolipin-1 channel inhibition; 0.02% of 390,000 active; Q9GZU1; activity change, negative = inhibition, % (concentration not given with the values); TRPML1-inducible cells, Ca2+ dye fluorescence, FDSS; stronger effect = lower value; inhibition of EC80 agonist-evoked calcium signal; in the data active means activity change below about -50%; inconclusive means about -30% to -50%; inactive means above about -30%;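 further: stimulus is agonist 54-4 at its EC80 concentration; on the % scale 0 is the no-effect control and ±100 the full control effect; compound concentration not given in the record; the text of the record puts the active cut at -80%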
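TRPML1-DL cells, Tet-induced overnight (~16 h, 37 °C) at 1,500 cells/well, were loaded with Ca8 no-wash dye plus quencher for 45-90 min at room temperature. Compounds were pinned during FDSS kinetic reading; agonist 54-4 at EC80 (4 uM final) then added.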
* marks the source's active call; other numbers are inactive results; [ ] = dose if it differs, or a comment.

How did Cc1c(C(=O)NCc2cccc(Cl)c2)sc(=O)n1Cc1ccc(F)cc1 do in these assays?
TRPML1 ag: 0.4; Six1-Eya2 inh: -13; PINK1 expr mod: 3.9%; CtBP-E1A blk: -7; D2 ag: 11

How did O=S(=O)(c1ccc(NC(=S)NC23CC4CC(CC(C4)C2)C3)cc1)N1CCCCC1 do in these assays?
TRPML1 ag: -0.2; Six1-Eya2 inh: 3; PINK1 expr mod: 18µM*; CtBP-E1A blk: 2; D2 ag: -3.3; TRPML1 inh: 2

How did CSCCC(NC(=O)COc1ccccc1)C(=O)N1CCN(c2ccccc2F)CC1 (stereo not given) do in these assays?
TRPML1 ag: 0.7; Six1-Eya2 inh: -5; PINK1 expr mod: 5.6%[38.3 µM]; CtBP-E1A blk: -6; D2 ag: -2.3; TRPML1 inh: -14

Results for Cc1ccccc1-c1cc2c(c3c1ccn3C)C1CCC2O1 (stereo not given) ?
TRPML1 ag: -0.1; Six1-Eya2 inh: -26; PINK1 expr mod: 6.9%; CtBP-E1A blk: -19; D2 ag: -5.9; TRPML1 inh: -5

Results for Cc1cccc(-c2nnc(-c3ccc4ccccc4c3)o2)c1 ?
TRPML1 ag: 4.9; Six1-Eya2 inh: 12; PINK1 expr mod: 8.4%; CtBP-E1A blk: 9; D2 ag: 0.3; TRPML1 inh: 14

How did COc1ccc(C2c3c(oc4ccccc4c3=O)C(=O)N2c2nc(C)c(C)s2)cc1 (stereo not given) do in these assays?
TRPML1 ag: 0.1; PINK1 expr mod: 4.9%; TRPML1 inh: -9

How did CCOc1ccc(S(=O)(=O)NCCC(=O)OCC(=O)N2CC(=O)Nc3ccccc32)cc1 do in these assays?
TRPML1 ag: 0.4; Six1-Eya2 inh: 4; PINK1 expr mod: -0.6%; D2 ag: 2.0; TRPML1 inh: -8

Results for COc1ccccc1CNC(=O)c1cn(C)c2ccc(S(=O)(=O)N(C)C3CCCCC3)cc2c1=O ?
TRPML1 ag: -0.6; PINK1 expr mod: 3.5%; TRPML1 inh: -17

How did COc1ccccc1OCC(=O)NCC1CCCN(C(=O)c2ccccc2C(C)=O)C1 (stereo not given) do in these assays?
TRPML1 ag: 0.5; Six1-Eya2 inh: 1; PINK1 expr mod: -1.1%; CtBP-E1A blk: 0; D2 ag: -4.0; TRPML1 inh: -20

How did OC(COCc1ccc(Cl)cc1)CN1CCCCC1 (stereo not given) do in these assays?
TRPML1 ag: 0.6; Six1-Eya2 inh: 4; PINK1 expr mod: -1.1%; D2 ag: -3.8; TRPML1 inh: 1

Results for Cc1ccc(-c2noc(CN3CCN(c4ccccc4F)CC3)n2)cc1 ?
TRPML1 ag: 0.8; Six1-Eya2 inh: 5; PINK1 expr mod: 4.6%; CtBP-E1A blk: 12; D2 ag: -2.7; TRPML1 inh: -17

Results for CCOc1ccc(-c2[nH]nc3c2C(c2ccc4c(c2)OCO4)C(C#N)=C(N)O3)cc1OC (stereo not given) ?
TRPML1 ag: 0.6; Six1-Eya2 inh: 2; PINK1 expr mod: 0.7%; CtBP-E1A blk: -3; D2 ag: -7.8; TRPML1 inh: 10

What do the screens show for `Cn1c(CCN2CCN(c3ccccn3)CC2)nc2cc(NS(=O)(=O)c3ccc(F)cc3)ccc21`?
TRPML1 ag: -0.8; Six1-Eya2 inh: -12; PINK1 expr mod: 2.9%; CtBP-E1A blk: -4; D2 ag: inconclusive; TRPML1 inh: -14

Results for CCCNC(=O)N(C)C[C@H]1Oc2ncc(Br)cc2C(=O)N([C@H](C)CO)C[C@H]1C ?
TRPML1 ag: 0.4; Six1-Eya2 inh: 4; PINK1 expr mod: 1.9%; CtBP-E1A blk: -13; D2 ag: -7.8; TRPML1 inh: -7

Results for Cc1cccc(-c2n[nH]c(=S)n2/N=C/c2ccc(C)s2)c1 ?
TRPML1 ag: 2.1; Six1-Eya2 inh: 24; PINK1 expr mod: 6.2%; CtBP-E1A blk: 5; D2 ag: -6.5; TRPML1 inh: 28

How did CCN(CC)CCCN1C(=O)C(=O)/C(=C(/O)c2ccc(Cl)cc2)C1c1ccccn1 (stereo not given) do in these assays?
TRPML1 ag: -0.5; Six1-Eya2 inh: 5; PINK1 expr mod: -1.8%; CtBP-E1A blk: -3; D2 ag: -0.6; TRPML1 inh: -4

What do the screens show for `COc1ccccc1-c1c(C)nn2c(N3CCN(c4ccc(F)cc4)CC3)cc(C)nc12`?
TRPML1 ag: 0.7; PINK1 expr mod: 1.8%; TRPML1 inh: 2

How did O=C(NCC(=O)N(c1cccc(F)c1)C(C(=O)NC1CCCC1)c1cccnc1)c1ccco1 (stereo not given) do in these assays?
TRPML1 ag: -0.8; Six1-Eya2 inh: 3; PINK1 expr mod: -0.4%; CtBP-E1A blk: -1; D2 ag: -3.6; TRPML1 inh: -7

Results for CC(C)(C)c1ccc(C(=O)OCC(=O)NCc2ccco2)cc1 ?
TRPML1 ag: 1.1; Six1-Eya2 inh: -3; PINK1 expr mod: 8.4%; CtBP-E1A blk: -2; D2 ag: -7.2; TRPML1 inh: 3

What do the screens show for `CSc1ccc(CCNC(=O)CCc2nnc3ccc(N4CCCCC4)nn23)cc1`?
TRPML1 ag: 0.3; Six1-Eya2 inh: 4; PINK1 expr mod: 0.7%; CtBP-E1A blk: -5; D2 ag: -1.4; TRPML1 inh: -14

How did Cc1ccc(S(=O)(=O)N2C[C@H]3N(C(=O)OC(C)C)N(C(=O)OC(C)C)C[C@H](OC(=O)NCc4ccccc4)[C@@]3(O)C2)cc1 do in these assays?
TRPML1 ag: -0.6; Six1-Eya2 inh: 4; PINK1 expr mod: 3.4%; CtBP-E1A blk: 3; D2 ag: -9.5; TRPML1 inh: 2

What do the screens show for `COCOCCn1cc(CN2CCS(=O)(=O)N(Cc3ccc(-c4ccncc4)cc3)C(C)C2=O)nn1` (stereo not given)?
TRPML1 ag: -0.3; Six1-Eya2 inh: 5; PINK1 expr mod: 3.2%; CtBP-E1A blk: 1; D2 ag: -1.8; TRPML1 inh: 5

What do the screens show for `COc1cccc(C(=O)N2CCCC(c3nc(-c4cccs4)no3)C2)c1` (stereo not given)?
TRPML1 ag: 0.3; Six1-Eya2 inh: -1; PINK1 expr mod: 10%[38.3 µM]; CtBP-E1A blk: 2; D2 ag: 0.1; TRPML1 inh: 11

How did CCOc1ccc(NC(=O)CSc2nc3[nH]ncc3c(=O)[nH]2)cc1 do in these assays?
TRPML1 ag: 0.0; Six1-Eya2 inh: 2; PINK1 expr mod: 5.1%; CtBP-E1A blk: -13; D2 ag: 1.9; TRPML1 inh: -3

How did O=C(NNC(=O)c1csc(-c2cnccc2C(F)(F)F)n1)c1ccc(C(F)(F)F)cc1 do in these assays?
TRPML1 ag: -0.4; Six1-Eya2 inh: 1; PINK1 expr mod: -2.3%; CtBP-E1A blk: -3; D2 ag: -2.4; TRPML1 inh: -5

Results for Oc1ccc(N=Nc2cccc(C(F)(F)F)c2)cc1C=Nc1ccc(N2CCOCC2)cc1 ?
TRPML1 ag: 0.4; Six1-Eya2 inh: -2; PINK1 expr mod: inconclusive; CtBP-E1A blk: 0; D2 ag: -2.4; TRPML1 inh: 1

What do the screens show for `Cc1ccc(S(=O)(=O)N2CCCCC2)cc1NC(=O)CNc1ccc(C(F)(F)F)cc1`?
TRPML1 ag: 0.3; Six1-Eya2 inh: 4; PINK1 expr mod: 25%; CtBP-E1A blk: -1; D2 ag: 0.3; TRPML1 inh: 3

What do the screens show for `Cc1ccc(C)c(NC(=O)CCc2nnc3ccc(N4CCCCC4)nn23)c1`?
TRPML1 ag: -0.9; Six1-Eya2 inh: 8; PINK1 expr mod: -0.3%; CtBP-E1A blk: 0; D2 ag: -3.2; TRPML1 inh: -2

What do the screens show for `Cc1ccc(S(=O)(=O)Nc2ccsc2C#N)cc1`?
TRPML1 ag: 0.7; Six1-Eya2 inh: 0; PINK1 expr mod: -0.4%; CtBP-E1A blk: -28; D2 ag: 3.6; TRPML1 inh: -10

What do the screens show for `Cc1ccc(S(=O)(=O)N2CCN(C(=O)COC(=O)Cc3c(F)cccc3Cl)CC2)c(C)c1`?
TRPML1 ag: 4.9; Six1-Eya2 inh: -5; PINK1 expr mod: 1.8%; CtBP-E1A blk: -1; D2 ag: 1.4; TRPML1 inh: -2

What do the screens show for `Cc1ccc(-n2c(C)nn(CC3CC3)c2=O)cc1`?
TRPML1 ag: -1.0; Six1-Eya2 inh: 0; PINK1 expr mod: 1.9%; CtBP-E1A blk: -9; D2 ag: -6.7; TRPML1 inh: -11

What do the screens show for `CC1=CC(C)(C)N2C(=O)C3(NCCc4c3[nH]c3ccccc43)c3cccc1c32` (stereo not given)?
TRPML1 ag: 0.5; Six1-Eya2 inh: -12; PINK1 expr mod: 2.4%; CtBP-E1A blk: -1; D2 ag: -0.5; TRPML1 inh: -15

Results for COC(=O)N/N=C\c1ccc(OC/C=C/c2ccccc2)cc1 ?
TRPML1 ag: -0.2; Six1-Eya2 inh: -7; PINK1 expr mod: 0.5%; CtBP-E1A blk: 5; D2 ag: 2.8; TRPML1 inh: 5

What do the screens show for `Cc1cc(NC(=O)/C=C/C(=O)N(CC(=O)NC2CCCC2)c2ccc(F)cc2)no1`?
TRPML1 ag: -0.3; Six1-Eya2 inh: 4; PINK1 expr mod: -0.1%; CtBP-E1A blk: 1; D2 ag: 0.9; TRPML1 inh: -3

What do the screens show for `COc1ccc(CCN(C)C(=O)C23CC4CC(CC(Cl)(C4)C2)C3)cc1OC`?
TRPML1 ag: -0.6; Six1-Eya2 inh: -12; PINK1 expr mod: 2.1%; CtBP-E1A blk: -4; D2 ag: -14; TRPML1 inh: -18

In the list so far, 5 contain a Cl atom:
How did Cc1c(C(=O)NCc2cccc(Cl)c2)sc(=O)n1Cc1ccc(F)cc1 do in these assays?
TRPML1 ag: 0.4; Six1-Eya2 inh: -13; PINK1 expr mod: 3.9%; CtBP-E1A blk: -7; D2 ag: 11

How did OC(COCc1ccc(Cl)cc1)CN1CCCCC1 (stereo not given) do in these assays?
TRPML1 ag: 0.6; Six1-Eya2 inh: 4; PINK1 expr mod: -1.1%; D2 ag: -3.8; TRPML1 inh: 1

How did CCN(CC)CCCN1C(=O)C(=O)/C(=C(/O)c2ccc(Cl)cc2)C1c1ccccn1 (stereo not given) do in these assays?
TRPML1 ag: -0.5; Six1-Eya2 inh: 5; PINK1 expr mod: -1.8%; CtBP-E1A blk: -3; D2 ag: -0.6; TRPML1 inh: -4

What do the screens show for `Cc1ccc(S(=O)(=O)N2CCN(C(=O)COC(=O)Cc3c(F)cccc3Cl)CC2)c(C)c1`?
TRPML1 ag: 4.9; Six1-Eya2 inh: -5; PINK1 expr mod: 1.8%; CtBP-E1A blk: -1; D2 ag: 1.4; TRPML1 inh: -2

What do the screens show for `COc1ccc(CCN(C)C(=O)C23CC4CC(CC(Cl)(C4)C2)C3)cc1OC`?
TRPML1 ag: -0.6; Six1-Eya2 inh: -12; PINK1 expr mod: 2.1%; CtBP-E1A blk: -4; D2 ag: -14; TRPML1 inh: -18
